HTT promoter inh – inhibits huntingtin promoter activity. HEK293 HTT promoter firefly luciferase reporter (activity 0% = vehicle and -100% = no light), 24 h. Potency, µM (doses to about 57.5 µM), for the others: at the highest dose activity change, negative = inhibition, actives largely listed as inhibitors. 48,000 compounds, 0.93% hits. AID 1508623; active = well fitted inhibition curve with a large enough effect; inconclusive = small, poorly fitted or top-dose-only effect; inactive = no such curve, though single readings can be large or run the other way; note: nearly all actives have a fitted effect of over 50% in size
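HEK293 Fluc reporter, 2,500 cells/well, 24 h pre-culture; cpds up to 57.5 uM final, 24 h 37 degrees C; Dual-Glo, 10 min RT; normalized vehicle = 0%, zero RLU = -100%.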
PMP22 txn – modulates PMP22 transcription in S16 Schwann cells | S16 Pmp22-F2sN Schwann cells (luciferase reporters placed in the Pmp22 gene), FLuc/NLuc coincidence luminescence, 24 h | Potency, µM (highest dose often 57.5 µM), inactives show at the highest dose activity change, negative = inhibition, actives largely listed as inhibitors | 43,000 compounds, 2% hits; active = clear falling dose curves in both reporters; inconclusive = both reporters move, but less clearly or upward; inactive = either reporter flat; the % is the NLuc reporter signal; note: % is set by controls: 0 for no effect and ±100 for the full control effect; some results filed as inactive show a strong effect at the top dose
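Rat S16 Pmp22-F2sN cells, 500-1,000/well in phenol red-free DMEM + 10% FBS, compound-treated 24 h (37C, 5% CO2). Luminescence: FLuc read, Stop&Glo added, NLuc read.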
Numbers without * were called inactive; ? = inconclusive; . = no result given; & = joins results of further samples; [ ] = remark or other dose. Potency is the fitted concentration of half-maximal effect.

| canonical_smiles | PMP22 txn | HTT promoter inh |
| --- | --- | --- |
| CCc1ccc(CN(Cc2ccco2)C(=O)c2cc(-c3ccc(C)c(F)c3)on2)cc1 | -6.7% | -12.7% |
| O=C(Nc1ccc(F)cc1)c1cc2cc3ccc(Cl)cc3nc2o1 | 1.7% | -3.8% |
| CC1CN(C(=O)N2CCC(C(=O)NCc3ccco3)CC2)c2cc(Cl)ccc2O1 (configuration not stated) | -7.1% | -15.5% |
| COC(=O)C(CCSC)Nc1ncnc2onc(-c3ccc(F)cc3)c12 (configuration not stated) | -5.0% | -8.9% |
| CCC1CN(C(=O)NCc2ccc(F)cc2)c2cc(Cl)ccc2O1 (configuration not stated) | ? | -9.9% |
| COC(=O)Cn1nc(C)c2c(C)n(-c3ccccc3)nc2c1=O | 0.0% | -6.5% |
| COc1ccc(N(C)C(=O)c2nc(-c3cccc(F)c3)n3c2CCCCC3)c(OC)c1 | 10.2% | -17.0% |
| Cc1ccc(N2CCN(S(=O)(=O)c3ccc(-n4cnnn4)cc3)CC2)c(C)c1 | -25.7% | -1.9% |
| Cc1ccc(C)c(CSc2nnc3[nH]c(=O)cc(C)n23)c1 | 2.9% | -8.2% |
| CCNC(=O)CC1C(=O)N(c2ccc(F)cc2)C(=O)N1Cc1ccc(C)cc1 (configuration not stated) | 11.7% | -7.1% |
| O=c1cc2nc(-c3cccs3)nc(SCCOc3ccc(Cl)cc3)n2[nH]1 | ? | -22.5% |
| O=S(=O)(c1ccccc1)c1nc(-c2ccccc2)oc1N1CCN(c2cccc(Cl)c2)CC1 | -4.7% | -21.0% |
| CCOC(=O)c1ccccc1NC(=O)N(C)CCc1c(C)nn(CC)c1C | ? | 43.1%[activator] |
| CCc1ccccc1NC(=O)C1CCN(C2=NS(=O)(=O)C(c3ccc(C)c(C)c3)=C2C)CC1 | -21.8% | ? |
| Cc1ccc(CCNS(=O)(=O)c2ccc3c(c2)CCN3C(=O)CCC(=O)O)cc1 | -2.0% | -6.3% |
| COCCn1c(=O)[nH]c2cc(C(=O)N3CCN(c4ccc(Cl)cc4)CC3)ccc2c1=O | ? | ? |
| COc1cc(OC)c(NC(=O)Cn2cnc3nc4c(cc3c2=O)CCCC4)cc1Cl | -2.6% | -23.2% |
| Cc1cccc(CSc2ncc(Cl)c(C(=O)Nc3nnc(C)s3)n2)c1 | 10.3% | -15.0% |
| CCOc1ccccc1NC(=O)CN1C(=O)COc2ccc(S(=O)(=O)N3CCCCCC3)cc21 | -13.9% | ? |
| COc1cc(OC)cc(C(=O)Nc2ccc(S(=O)(=O)Nc3ncccn3)cc2)c1 | -43.3% | -6.0% |
| CCOc1ccc(CNS(=O)(=O)c2cc3c(cc2C)NC(=O)CO3)cc1OC | -15.6% | -14.0% |
| COc1ccc(S(=O)(=O)N2Cc3ccccc3CC2C(=O)Nc2ccc(C)cc2)cc1OC (configuration not stated) | -15.7% | -23.0% |
| COc1ccc(C2c3c(n(C)c4ccccc34)C(=O)N2CC(=O)Nc2cc(Cl)ccc2C)cc1 (configuration not stated) | -18.6% | ? |
| CC(=O)c1cccc(NC(=O)C(C)n2c(=O)cc(-c3ccccc3)c3c(C)nn(C)c32)c1 (configuration not stated) | ? | -6.3% |
| CCn1cc2nc(SCC(=O)Nc3cc(OC)ccc3OC)n(Cc3ccc(Cl)cc3)c(=O)c2n1 | -20.4% | -23.3% |
| Cc1nnc(SCc2cc(=O)n3cccc(C)c3n2)s1 | -20.6% | 14.5% |
| O=C1CN(C(=O)COc2ccc(Cl)cc2)C(c2ccc(F)cc2)c2cc(Br)ccc2N1 (configuration not stated) | ? | ? |
| CCc1ccc(NS(=O)(=O)c2ccc3[nH]cc(C(=O)NCCc4ccccc4)c(=O)c3c2)cc1 | 2.5% | 0.0% |
| COc1cc(CNC(=O)c2cc3n(n2)CCCN(Cc2ccc(C)cc2)C3=O)cc(OC)c1OC | -20.7% | ? |
| CCN(C(=O)CSc1nc(-c2ccccc2)no1)c1ccccc1 | -4.4% | -9.1% |
| CN1CC(=O)NC1=NC(=O)Nc1cccc(Cl)c1 | . | 1.0% |
| Cc1cc(=O)n(Cc2cccc(F)c2)c2c1c(C)nn2-c1cccc(F)c1 | -25.5% | -3.5% |
| CC1=Nc2cc(C(=O)NC3CCC(C)CC3)ccc2Sc2c(C)ccc(C)c21 (configuration not stated) | -115.6% | -4.9% |
| Cc1ccc(NC(=O)Cn2c(=O)n(CCCCC(=O)NCc3ccccc3Cl)c(=O)c3ccccc32)cc1 | ? | 0.6% |
| COc1ccc(C2=C(C)C(N3CCC(C(=O)NCc4ccc(C)o4)CC3)=NS2(=O)=O)cc1 | -13.4% | -23.7% |
| O=C(Cn1cc(SCc2ccc(Cl)cc2)c2ccccc21)N1CCCC1 | ? | -13.0% |
| CCOC(=O)CC(NC(=O)c1cc2c(=O)n3cccc(C)c3nc2s1)c1ccc(OCC(C)C)c(OC)c1 (configuration not stated) | -29.3% | ? |
| Cc1cc(-c2nc3ccccc3s2)ccc1NC(=O)c1cc(Cl)ccc1Cl | ? | 11.4% |
| CCCCOC(=O)c1ccc(NC(=O)CC2NCCNC2=O)cc1 (configuration not stated) | -23.3% | 7.3% |
| Fc1ccc(NCc2ccccc2-c2nnc(-c3ccccc3Cl)o2)cc1Cl | -16.7% | 57.3%[activator] |
| COc1ccc(-c2cc(C)no2)cc1S(=O)(=O)N1CCCC(C)C1 (configuration not stated) | -5.0% | ? |
| CCc1nnc(SCC(=O)Nc2cc(Cl)c(OC)cc2OC)c2cc3oc(C)cc3n12 | -16.4% | -1.9% |
| CCCc1nnc(NC(=O)Cc2coc3cc(C)cc(C)c23)s1 | ? | -16.1% |
| CCOc1ccc(NC(=O)CSc2nnc(-c3ccncc3)n2-c2ccccc2)cc1 | -39.3% | 9.2% |
| Cc1ccccc1C(=O)OCc1cc(=O)n2c(C)csc2n1 | -3.8% | 14.6% |
| COc1ccc(-c2noc(-c3cccc(OC)c3OC)n2)cc1 | -0.5% | 44.5%[activator] |
| Cc1ccc(C(=O)c2cc(O)c(O)c([N+](=O)[O-])c2)cc1 | . | -23.5%&-29.9% |
| Cc1ccc(-n2c(=O)c3c4c(sc3n(Cc3cc(=O)n5ccccc5n3)c2=O)CCC4)cc1C | ? | -2.4% |
| COc1ccc(NC(=O)CCn2cnc3onc(-c4ccc(F)cc4)c3c2=O)cc1OC | 11.3µM* | ? |
| COc1ccc(NC(=O)c2oc3ccccc3c2NC(=O)Cc2coc3cc(C)ccc23)cc1 | 8.7% | -1.9% |

Next part
| canonical_smiles | PMP22 txn | HTT promoter inh |
| --- | --- | --- |
| O=C(/C=C\c1ccc2c(c1)OCO2)NC1CC(=O)N(c2ccccc2)C1 (configuration not stated) | -21.3% | ? |
| Cc1ccc(Cl)cc1N1CCN(S(=O)(=O)c2ccc3c(c2)CC(C)N3C(=O)C2CCC2)CC1 (configuration not stated) | -16.2% | -17.8%[11.5 µM] |
| CN(C)c1ccc(O)c2c1C[C@H]1C[C@H]3[C@H](N(C)C)C(=O)C(C(N)=O)=C(O)[C@@]3(O)C(=O)C1=C2O | . | -20.8%&-19.5% |
| Cc1ccc(S(=O)(=O)c2nnn3c2nc(N2CCCCC2)c2sccc23)cc1 | ? | 1.9% |
| CCOC(=O)c1ccc(NC(=O)CSc2ncc(S(=O)(=O)c3ccc(C)c(Cl)c3)c(=O)[nH]2)cc1 | 5.0% | -4.7% |
| CCN1CCN(c2c(S(=O)(=O)c3ccc(OC)cc3)cnc3cc(OC)c(OC)cc23)CC1 | ? | -18.4% |
| COc1ccc(C)cc1S(=O)(=O)NCC(c1cccs1)S(=O)(=O)c1ccc(C)cc1 (configuration not stated) | ? | ? |
| Cc1cccc(N2C(=O)CSC23C(=O)N(C)c2ccccc23)c1 (configuration not stated) | 11.6% | -20.5% |
| CCOc1ccccc1CNC(=O)CSc1n[nH]c(-c2ccccc2Cl)n1 | -11.0% | -19.4% |
| CCOc1ccc(-c2nc(SCC(=O)Nc3ccc4c(c3)OCCO4)c(-c3ccc(F)cc3)[nH]2)cc1 | ? | -19.6% |
| COc1ccccc1NC(=O)c1cn(-c2ccccc2)nc1-c1ccccc1 | ? | -26.9% |
| Cc1ccc(CNC(=O)c2cc3c(=O)n4cccc(C)c4nc3s2)cc1 | -78.3% | -8.9% |
| Cc1ccccc1-c1noc(-c2ccc(N3CCC(C)CC3)c([N+](=O)[O-])c2)n1 | 3.1% | -2.9% |
| CCOC(=O)c1c(NC(=O)c2cc(-c3ccc(Br)cc3)on2)sc(C(C)=O)c1C | 2.3% | -8.3%[11.5 µM] |
| Cc1ccc(-n2c(SCc3ccccc3F)nc3[nH]ncc3c2=O)cc1C | ? | -18.3%[11.5 µM] |
| CCOC(=O)Cn1c(=O)n(CC2CCCO2)c2nc(-c3ccc(C)cc3)nc(C(N)=O)c21 (configuration not stated) | ? | -12.2% |
| CCCCNS(=O)(=O)c1ccc2nc(-c3cccnc3)cc(C(=O)NCCOC)c2c1 | 13.6% | -10.7% |
| Cc1cccc(Cn2c(CN3CCCC(C)C3)nc3c2c(=O)n(C)c(=O)n3C)c1 (configuration not stated) | -1.4% | -2.7% |
| COc1ccc(S(=O)(=O)NCCCO)cc1-c1nnc2c3ccccc3c(C)nn12 | ? | -11.7% |
| CCCc1noc(-c2ccc(NCc3ccccc3OC)c([N+](=O)[O-])c2)n1 | ? | ? |
| CCC(C)NC(=O)c1c(C)oc2ncn(CC(C)C)c(=O)c12 (configuration not stated) | ? | 3.7% |
| COc1ccccc1NC(=O)C(Cc1ccccc1)NS(=O)(=O)c1ccc2c(c1)c(=O)n(C)c(=O)n2C (configuration not stated) | -10.9% | -5.1% |
| COc1cccc(-c2cn3c(n2)sc2cc(C(=O)NCc4cccs4)ccc23)c1 | 2.5% | 30.0%[activator] |
| COc1cc(NC(C)CCCN)c2ncccc2c1 (configuration not stated) | . | -16.0% |
| CCc1cccc(C)c1NC(=O)c1cnn(-c2ccc(F)cc2)c1-n1cccc1 | -21.0% | -37.5% |
| COc1cc2c(=O)n(CCC(=O)NCC3CCCO3)c(=O)n(CC(=O)Nc3ccc(C)cc3)c2cc1OC (configuration not stated) | 5.3% | -3.4% |
| COc1ccc(CCNC(=O)c2ccc3c(c2)ncn3-c2ccc(C(C)C)cc2)cc1OC | ? | ? |
| Nc1ncc(S(=O)(=O)NCc2ccccc2)cn1 | 2.8% | -3.2% |
| Cc1cccc(NC(=O)c2c(C)cc(C)nc2SCC(=O)c2ccccc2)c1 | -32.0% | -19.9% |
| Cc1cc(C)cc(NC(=O)C2CCN(c3nc4ccccc4nc3C(F)(F)F)CC2)c1 | ? | -14.4% |
| CCc1cc2c(cc3c(=O)n(CCCC(=O)NCc4cccc(Br)c4)ncn32)s1 | ? | ? |
| Cc1ccccc1NC(=O)c1c2c(nc3ccccc13)C(=O)N(C1CCCCC1)C2 | ? | -4.8% |
| Cc1noc(C)c1S(=O)(=O)N1CCC(C(=O)Nc2ccc(Br)cc2)CC1 | -21.9% | -28.0% |
| CCOC(=O)c1c(S(=O)(=O)N2CCC(C(=O)Nc3ncccc3C)CC2)c(C)n(C)c1C | -2.1% | -10.5% |
| COc1ccc(-c2noc(N3CCC(C(=O)N4CCN(c5ccccc5OC)CC4)CC3)n2)cc1 | ? | 12.6µM* |
| Cn1nc(-c2ccc(C(=O)Nc3cccc(C(F)(F)F)c3)cc2)c2ccccc2c1=O | ? | -0.3% |
| Cc1ccc2onc(CC(=O)N3CCN(c4cc(Cl)ccc4C)CC3)c2c1 | ? | ? |
| CCCN(CCC)C(=O)Cn1c(=O)n(CCCCCC(=O)NCc2ccccc2Cl)c(=O)c2sccc21 | -0.7% | -6.7% |
| COc1ccc(C)cc1NC(=O)C(Cc1ccccc1)NS(=O)(=O)c1cccs1 (configuration not stated) | ? | -6.6% |
| Fc1cccc(-n2ncc3c2ncn2nc(-c4ccccc4Cl)nc32)c1 | 2.0% | 1.4% |
| COC(=O)c1ccccc1NC(=O)CCCn1c(C)c2cnn(-c3ccccc3)c(=O)c2c1C | -19.6% | -15.6% |
| COc1ccc(OC)c(NC(=O)C2CCN(S(=O)(=O)c3c(C)noc3/C=C/c3ccc(C)cc3)CC2)c1 | ? | -5.8% |
| N#C/C(=C\c1c(Oc2ccc(F)cc2)nc2ccccn2c1=O)c1nc2ccccc2s1 | -34.2% | -7.2%[11.5 µM] |
| CC(CNC(=O)C1CCN(C(=O)c2cc3sccc3n2C)CC1)c1ccccc1 (configuration not stated) | -1.9% | -14.8% |
| Clc1ccccc1Cn1cccc1C1=NC(Cc2ccccc2)CO1 (configuration not stated) | -40.3% | -5.3% |
| COc1ccc(N2CCN(C(CNC(=O)c3ccc(C)cc3)c3ccc4c(c3)OCO4)CC2)cc1 (configuration not stated) | ? | ? |
| O=C(O)c1cc(-n2c(/C=C\c3ccc(F)cc3)nc3ccccc3c2=O)ccc1Cl | -14.5% | ? |

Compound profiles, from the list above.
Shown for COc1ccc(C)cc1NC(=O)C(Cc1ccccc1)NS(=O)(=O)c1cccs1 (configuration not stated) : PMP22 txn: ?; HTT promoter inh: -6.6%
Shown for Cc1noc(C)c1S(=O)(=O)N1CCC(C(=O)Nc2ccc(Br)cc2)CC1 : PMP22 txn: -21.9%; HTT promoter inh: -28.0%

Bioassay records as filed in PubChem.

The list is partial (hit frequency here may not be typical).
